WNV protease inh: inhibitors of West Nile virus NS2B-NS3 protease; P06935; WNV NS2B-NS3 protease, fluorogenic substrate Ex360/Em465; hits give low values; z-score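 (tested at a level between 10 and 100 µM)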; hit rate 0.18% among 65,000; AID 577;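 active = z-score at -3 or under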;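 note: score is relative to mean and spread of the compound wells of a plate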
Target sequence (P06935 1371-1501 limits assumed): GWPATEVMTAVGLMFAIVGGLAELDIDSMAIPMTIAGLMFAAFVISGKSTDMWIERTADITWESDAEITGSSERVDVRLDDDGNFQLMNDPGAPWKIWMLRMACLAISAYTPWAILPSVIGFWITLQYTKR
Target sequence (P06935 1502-1679 limits assumed): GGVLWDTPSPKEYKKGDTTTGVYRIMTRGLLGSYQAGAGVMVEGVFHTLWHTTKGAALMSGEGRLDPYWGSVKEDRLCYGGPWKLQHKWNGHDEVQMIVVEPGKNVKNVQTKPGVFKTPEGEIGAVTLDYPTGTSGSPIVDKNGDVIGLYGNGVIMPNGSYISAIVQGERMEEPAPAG
Hsc70: small molecules displacing fluorescent ligand from Hsc70 – biochemical, fluorescence polarization, primary screen (AID 568); 83,000 tested, under 10 active; Hsc70 fluorescence polarization, probe displacement; higher % means a stronger effect; strong numbers were not always called active; displacement, % at 20 µM, or IC50 in µM where a hit was titrated;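 active = displacement above 50% without optical interference and an IC50 on retest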;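 note: ATPase domain with a fluorescein-tagged ATP probe; 0% = vehicle and 100% = excess ADP; read after one hour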
MT1-MMP reporter: MT1-MMP gene expression reporter suppression – cell-based, luciferase reporter, luminescence (AID 618); MT1-MMP promoter luciferase reporter cells, luminescence; calls from a first round at 10 µM; hits with a dose series show EC50 in µM; hit rate 0.62% among 87,000;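 active = over half of the reporter light lost at 10 µM or EC50 under 50 µM; inactive = the rest and hits that failed the dose series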;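 note: actives suppress MT1-MMP promoter-driven transcription so potencies describe inhibitors; HT1080 fibrosarcoma cells; overnight exposure; toxic or luciferase-blocking compounds were not removed from the actives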
* = called active by the depositor; i = inactive; nt = no result given.

1. COCCCNC(=O)C1CCN(C(=O)Nc2ccc(Cl)cc2)CC1
2. Cc1ccc(N(CC(=O)NCc2cccs2)S(=O)(=O)c2cccs2)cc1
3. C=CCN(CC=C)CC(=O)Nc1ccc(S(N)(=O)=O)cc1
4. O=C(Nc1ccccc1)N(CCc1ccncc1)C1CCCCC1
5. CC(C)Sc1nc2c(c(=O)[nH]c(=O)n2C)n1CCc1ccccc1

Screen / compound no.,1,2,3,4,5
WNV protease inh,-0.14,-0.26,nt,0.83,-0.18
Hsc70,-6.3%,-8.4%,0.7%,-0.4%,1.4%
MT1-MMP reporter,i,i,i,i,i

6. O=C(CSc1nnc(Cc2ccccc2)n1Cc1ccco1)NC1CCCC1
7. Cc1nn(CCC#N)c(NC(=O)c2ccc(Cl)cc2Cl)c1P(=O)(Nc1ccc([N+](=O)[O-])cc1)N1CCOCC1 (stereo unspecified)
8. O=C(Nc1ccc(F)cc1)c1cccnc1N1CCOCC1
9. COc1cccc(C2N(c3ccccn3)C(=O)C3CCCN32)c1OC (stereo unspecified)
10. O=C(CN(Cc1ccccc1)C(=O)CCC(=O)Nc1nccs1)NCc1ccco1

Screen / compound no.,6,7,8,9,10
WNV protease inh,0.01,nt,-0.28,-1.1,-1.3
Hsc70,-1.8%,1.5%,3.4%,-2.2%,-21%
MT1-MMP reporter,i,i,i,i,i

11. O=C(Nc1ccccc1Cl)N1CCN(c2ccc3nnc(-c4ccccc4)n3n2)CC1
12. CCCC(=O)NCCCc1nc2ccccc2n1C(C)C
13. CN(Cc1ccccc1)C(=O)CN(c1ccc(F)cc1)S(=O)(=O)c1ccc2c(c1)OCCO2
14. Cc1ccc(C)c(NC(=O)CSc2nnc(CCCCCNC(=O)OC(C)(C)C)o2)c1
15. Cc1ccc(CN2C(=O)CCC2C(=O)N2CCN(c3ccc(F)cc3)CC2)cc1 (stereo unspecified)

Screen / compound no.,11,12,13,14,15
WNV protease inh,-0.53,0.82,nt,1.2,0.66
Hsc70,2.6%,-3.2%,2.4%,-6.9%,-2.2%
MT1-MMP reporter,i,i,i,i,i

16. O=P(c1ccccc1)(c1ccccc1)C1CCCO1 (stereo unspecified)
17. Cc1ccc(-c2cc(C(=O)N3CCOCC3)c3ccccc3n2)cc1
18. Cc1c(/N=C/c2ccco2)n(Cc2ccccc2)c2ccccc12
19. Cc1ccccc1OC(=O)CCC(=O)OCCCC(F)(F)C(F)(F)F
20. O=C(NCc1ccccc1)C(c1ccccc1)N(Cc1ccc2c(c1)OCO2)C(=O)Cc1cccs1 (stereo unspecified)

Screen / compound no.,16,17,18,19,20
WNV protease inh,-0.03,-0.54,0.55,2.1,nt
Hsc70,0.6%,-2.9%,0.7%,1.8%,-6.6%
MT1-MMP reporter,i,i,i,i,i

21. CCOC(=O)N1CCN(C(=O)CSc2nnc(COc3ccccc3)o2)CC1
22. C[C@H](NC(=O)Nc1cccc(C(F)(F)F)c1)C(=O)O
23. COc1ccc(Cl)cc1NC(=O)CN1C(=O)CSC1=O
24. Cc1ccc(C)c(Cc2c(C)nc3c(C(=O)NCc4ccc5c(c4)OCO5)cnn3c2C)c1
25. OCCN(Cc1ccccc1)Cc1cccc(C(F)(F)F)c1

Screen / compound no.,21,22,23,24,25
WNV protease inh,0.65,0.56,0.36,nt,-0.56
Hsc70,1.6%,-0.9%,-7.4%,-12%,-1.0%
MT1-MMP reporter,i,i,i,i,i

26. Cc1ccc(C(=O)C2CCN(CC(=O)NC3CCCCC3)CC2)cc1
27. CCCCP(=O)(CCCC)Cc1ccccc1O
28. COc1ccc(Cl)cc1NC(=O)c1oc(C)nc1C
29. CCC(Sc1ccc2nnc(-c3ccc(F)cc3)n2n1)C(=O)OC (stereo unspecified)
30. C(=N\n1cnnc1)/c1cn(-c2cccs2)nc1-c1ccccc1

Screen / compound no.,26,27,28,29,30
WNV protease inh,-0.39,0.41,-0.64,1.1,0.14
Hsc70,12%,0.7%,-10%,-8.3%,-0.1%
MT1-MMP reporter,i,i,i,i,i

A draw from above in order of molecular weight, lowest first:
25. OCCN(Cc1ccccc1)Cc1cccc(C(F)(F)F)c1
1. COCCCNC(=O)C1CCN(C(=O)Nc2ccc(Cl)cc2)CC1
13. CN(Cc1ccccc1)C(=O)CN(c1ccc(F)cc1)S(=O)(=O)c1ccc2c(c1)OCCO2

Screen / compound no.,25,1,13
WNV protease inh,-0.56,-0.14,nt
Hsc70,-1.0%,-6.3%,2.4%
MT1-MMP reporter,i,i,i

Further records.
31. CC1CCCCN1CCNS(=O)(=O)c1ccc2c(c1)oc(=O)n2C (stereo unspecified)
32. C#CC[N+]1(CC#Cc2ccccc2)CCOCC1
33. O=C(NC1CCCCC1)/C(=N\O)c1ccccn1
34. CCCCSc1nc(C)[nH]c1[N+](=O)[O-]
35. CCCCn1c(NC(C)=O)c(C#N)c2nc3ccccc3nc21

Screen / compound no.,31,32,33,34,35
WNV protease inh,-0.08,nt,-1.6,nt,0.71
Hsc70,0.9%,-7.0%,3.9%,3.5%,1.5%
MT1-MMP reporter,i,i,i,i,i

36. CC(=O)c1ccc(OCCCC(=O)OCc2nnc(-c3ccc(Cl)cc3)o2)cc1
37. Cc1sc2c(c1C)CN(C1CC(C)(C)NC(C)(C)C1)CN2C(=O)c1ccco1
38. CCc1c(-c2ccccc2)nc2nc(C)c(C)nn12
39. CC1(C)Cc2c(C#N)c(N3CCOCC3)nc(Cc3ccccc3)c2CO1
40. O=C(Nc1ccncc1)c1cc2ccccc2oc1=O

Screen / compound no.,36,37,38,39,40
WNV protease inh,-0.87,-0.44,0.66,-0.18,0.4
Hsc70,-1.3%,-5.8%,12%,1.2%,-13%
MT1-MMP reporter,i,i,i,i,i

41. O=C1c2[nH]nc(-c3ccccc3O)c2C(c2cccc(O)c2)N1Cc1ccco1 (stereo unspecified)
42. COc1cccc2cc(-c3nnc(SCC(=O)NCc4ccccc4)n3C)oc12
43. Cc1onc(-c2c(Cl)cccc2Cl)c1C(=O)NCCN1CCOCC1
44. Cc1nc2sc(C)c(C)c2c(=O)o1
45. Cc1cc(NC(=O)CN2CCCCC2C)nc2c1c(=O)oc1ccccc12 (stereo unspecified)

Screen / compound no.,41,42,43,44,45
WNV protease inh,nt,-0.26,-0.34,0.46,-0.66
Hsc70,7.4%,0.9%,0.1%,-3.3%,3.8%
MT1-MMP reporter,i,i,i,i,i

46. Cc1ccc(NC(=O)C(C)N2CCOCC2)c(C(=O)c2ccccc2)c1 (stereo unspecified)
47. COc1cccc(NC(=O)c2ccccc2-c2nc(-c3cccc(C)c3)no2)c1
48. Cc1noc(/C=C/N(C)C)c1S(=O)(=O)N1CCCC(C(=O)NCc2ccc(F)cc2)C1 (stereo unspecified)
49. Cc1cc(C(=O)Nc2nnc(C3CCCCC3)s2)cs1
50. CCOC(=O)c1cc2sc(C)cc2n1CC(=O)N(CC)CC

Screen / compound no.,46,47,48,49,50
WNV protease inh,0.95,-1,0.03,-0.07,nt
Hsc70,4.0%,-9.5%,0.4%,1.3%,2.1%
MT1-MMP reporter,i,i,i,i,i

51. CC(=O)N/C(=C\c1ccccc1Cl)C(=O)O
52. Clc1ccc(-n2ncc3c(NCC4CCCO4)ncnc32)cc1 (stereo unspecified)
53. CC(=O)c1ccc(-n2nnnc2SCC(=O)Nc2cccc(NC(=O)c3ccco3)c2)cc1
54. Cc1cccc(OCc2nnc(SCC(=O)Nc3ccc(C)c(Cl)c3)o2)c1
55. COc1cc(C2C(C(=O)c3cccs3)=C(O)C(=O)N2c2cc(C)on2)ccc1O (stereo unspecified)

Screen / compound no.,51,52,53,54,55
WNV protease inh,nt,-0.49,nt,0.32,-0.27
Hsc70,0.3%,5.1%,-5.1%,5.6%,-5.1%
MT1-MMP reporter,i,i,i,i,i

56. Cc1ccccc1-n1c(SC(C)C(N)=O)nnc1-c1cccnc1 (stereo unspecified)
57. CSc1ccc(S(=O)(=O)Nc2ccc(F)cc2)cc1
58. N#Cc1c(-c2ccco2)cc(-c2cccnc2)nc1N
59. CS(=O)(=O)N1CCN(C(=O)c2ccc(F)cc2)CC1

Screen / compound no.,56,57,58,59
WNV protease inh,-0.98,0.85,0.17,0.06
Hsc70,-1.4%,-1.0%,-3.2%,2.8%
MT1-MMP reporter,i,i,i,i

Structures listed so far containing an aryl thioether with sulfur outside any ring, in the order listed:
5. CC(C)Sc1nc2c(c(=O)[nH]c(=O)n2C)n1CCc1ccccc1
6. O=C(CSc1nnc(Cc2ccccc2)n1Cc1ccco1)NC1CCCC1
14. Cc1ccc(C)c(NC(=O)CSc2nnc(CCCCCNC(=O)OC(C)(C)C)o2)c1
21. CCOC(=O)N1CCN(C(=O)CSc2nnc(COc3ccccc3)o2)CC1
29. CCC(Sc1ccc2nnc(-c3ccc(F)cc3)n2n1)C(=O)OC (stereo unspecified)
34. CCCCSc1nc(C)[nH]c1[N+](=O)[O-]
42. COc1cccc2cc(-c3nnc(SCC(=O)NCc4ccccc4)n3C)oc12

Screen / compound no.,5,6,14,21,29,34,42
WNV protease inh,-0.18,0.01,1.2,0.65,1.1,nt,-0.26
Hsc70,1.4%,-1.8%,-6.9%,1.6%,-8.3%,3.5%,0.9%
MT1-MMP reporter,i,i,i,i,i,i,i

53. CC(=O)c1ccc(-n2nnnc2SCC(=O)Nc2cccc(NC(=O)c3ccco3)c2)cc1
54. Cc1cccc(OCc2nnc(SCC(=O)Nc3ccc(C)c(Cl)c3)o2)c1
56. Cc1ccccc1-n1c(SC(C)C(N)=O)nnc1-c1cccnc1 (stereo unspecified)
57. CSc1ccc(S(=O)(=O)Nc2ccc(F)cc2)cc1

Screen / compound no.,53,54,56,57
WNV protease inh,nt,0.32,-0.98,0.85
Hsc70,-5.1%,5.6%,-1.4%,-1.0%
MT1-MMP reporter,i,i,i,i

Among those listed so far, 2 have a nitro group on carbon:
7. Cc1nn(CCC#N)c(NC(=O)c2ccc(Cl)cc2Cl)c1P(=O)(Nc1ccc([N+](=O)[O-])cc1)N1CCOCC1 (stereo unspecified)
34. CCCCSc1nc(C)[nH]c1[N+](=O)[O-]

Screen / compound no.,7,34
WNV protease inh,nt,nt
Hsc70,1.5%,3.5%
MT1-MMP reporter,i,i

An excerpt; rates above refer to the full screens.
